# Bioassay records: PubChem, Broad Institute
# Vaccinia inh: blocks a specific stage of Vaccinia orthopoxvirus infection, primary screen, cell-based, single point; Vaccinia-infected cells, mCherry/Venus stage reporter fluorescence; hits give low values; some inactives read as strong as hits; activity change (mCherry), % (no concentration beside the values); 89,000 tested, 0.01% active;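 active = mCherry past -33% and 40 or more points under the early reporter, replicates agreeing; inconclusive = past -33% without that gap or agreement; tested in A549 cells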;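 note: scaled between vehicle wells and reference inhibitor wells; 23 nL library stock went into each well; one replicate is shown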
# Vaccinia inh Venus: also measured in Vaccinia inh; calls as there; activity change (Venus), %; measured here: Venus reporter, other viral stage;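 negative = less Venus signal; first of two replicates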
# * = called active by the depositor; ? = inconclusive; / = no result given. These rows are one share of the data; rates above refer to the full screens.
SMILES,Vaccinia inh,Vaccinia inh Venus
COCC#Cc1cnc2c(c1)C(=O)N([C@H](C)CO)C[C@H](C)[C@H](CN(C)C(=O)c1cccc(F)c1)O2,12,10
COc1ccc(-c2ccc([C@@H]3[C@@H](CO)N4C(=O)CN(C(=O)c5ccccc5)C[C@H]34)cc2)cc1,-11,-8
COc1ccc(-c2ccc([C@H]3[C@@H](C#N)N(C(=O)NC4CCCC4)[C@@H]3CO)cc2)cc1,-19,-12
CCC(=O)N(C)C[C@H]1Oc2cc(-c3ccccc3F)ccc2S(=O)(=O)N([C@@H](C)CO)C[C@H]1C,1,0
CO[C@@H]1CN(C)C(=O)c2ccc(NC(=O)c3cc(C)on3)cc2OC[C@H](C)N(CC2CC2)C[C@H]1C,-4,-2
O=C(c1cccc(F)c1)N1CCCCN2[C@H](CO)[C@@H](c3ccc(-c4ccccc4)cc3)[C@@H]2C1,-15,-19
OC[C@H]1[C@@H](c2ccc(-c3ccc(F)cc3)cc2)[C@@H]2CN(Cc3ccncc3)CCCCN12,?,/
CN1C(=O)c2cc(NC(=O)Cc3cccs3)ccc2OC[C@@H]2O[C@@H](CC(=O)NCC3CCCCC3)CC[C@H]21,-33,-7
O=C(C1CCOCC1)N1C[C@H]2[C@@H](c3ccccc31)[C@H](CO)N2C(=O)Nc1ccccc1F,12,6
COc1ccc(S(=O)(=O)Nc2ccc3c(c2)C(=O)N([C@H](C)CO)C[C@H](C)[C@@H](CN(C)Cc2ccncc2)OCCCC[C@H](C)O3)cc1,27,-4
C[C@@H]1CCCCO[C@@H](CN(C)S(C)(=O)=O)[C@@H](C)CN([C@@H](C)CO)C(=O)c2cc(NC(=O)C3CCCCC3)ccc2O1,15,15
C[C@@H]1CCCCO[C@H](CN(C)S(C)(=O)=O)[C@H](C)CN([C@@H](C)CO)C(=O)c2cc(NS(=O)(=O)c3cn(C)cn3)ccc2O1,15,14
Cc1ccc(S(=O)(=O)N[C@@H]2C=C[C@H](CC(=O)NCc3ccncn3)O[C@H]2CO)cc1,-3,0
CCS(=O)(=O)NCC[C@H]1CC[C@@H](NC(=O)Nc2cc(Cl)cc(Cl)c2)[C@@H](CO)O1,-6,6
CO[C@H]1CN(C)C(=O)c2ccc(NC(=O)Cc3ccccc3)cc2OC[C@@H](C)N(C)C[C@H]1C,14,10
CCO[C@@H]1OC(C(=O)N2CCN(Cc3ccccc3)CC2)=C[C@H](c2csc3ccccc23)[C@H]1CCCO,-23,-20
Cc1noc(C)c1NC(=O)Nc1ccc2c(c1)C(=O)N([C@@H](C)CO)C[C@H](C)[C@@H](CN(C)C(=O)Nc1cccc3ccccc13)O2,10,20
C[C@@H]1CN([C@@H](C)CO)C(=O)c2cc(C#Cc3ccc(F)cc3)cnc2O[C@H]1CN(C)Cc1ccccn1,?,/
CN1C(=O)c2cc(NC(=O)C3CCOCC3)ccc2OC[C@@H]2O[C@H](CC(=O)NCCc3ccncc3)CC[C@H]21,15,10
CN(C)C(=O)C[C@@H]1CC[C@@H](NC(=O)NC2CCCC2)[C@@H](CO)O1,-10,9

# One compound at a time, as listed above.
# Cc1noc(C)c1NC(=O)Nc1ccc2c(c1)C(=O)N([C@@H](C)CO)C[C@H](C)[C@@H](CN(C)C(=O)Nc1cccc3ccccc13)O2 in the list: Vaccinia inh = 10; Vaccinia inh Venus = 20
# CN1C(=O)c2cc(NC(=O)C3CCOCC3)ccc2OC[C@@H]2O[C@H](CC(=O)NCCc3ccncc3)CC[C@H]21 in the list: Vaccinia inh = 15; Vaccinia inh Venus = 10

# Next section.
SMILES,Vaccinia inh,Vaccinia inh Venus
CC(=O)N[C@@H]1CC[C@@H](CC(=O)NCC2CCCCC2)O[C@@H]1CO,14,16
O=C(C[C@@H]1C=C[C@@H](NC(=O)C2CCC2)[C@@H](CO)O1)NC1CCC1,0,2
COc1ccc2c3c([nH]c2c1)[C@@H](CO)N(C(=O)c1ccccc1)CC31CN(Cc2cccnc2)C1,14,12
O=C(CN1CCOCC1)NCC[C@@H]1CC[C@@H](NC(=O)c2ccccc2F)[C@H](CO)O1,2,2
C/C=C/c1ccc([C@H]2[C@@H](CO)N3C(=O)CN(Cc4ccccc4)C[C@H]23)cc1,-23,-18
C[C@@H](O)C#Cc1cnc2c(c1)C(=O)N([C@@H](C)CO)C[C@H](C)[C@H](CN(C)C(=O)c1ccccc1F)O2,6,3
C[C@H](CO)N1C[C@H](C)[C@H](CN(C)C(=O)Cc2ccccc2)Oc2cc(-c3ccccc3)ccc2S1(=O)=O,-33,-31
O=C(C1CC1)N1CC(=O)N2[C@H](C1)[C@H](c1ccc(C#CCc3ccccc3)cc1)[C@@H]2CO,-4,-2
Cc1noc(C)c1S(=O)(=O)Nc1ccc2c(c1)C(=O)N([C@H](C)CO)C[C@H](C)[C@H](CN(C)Cc1ccc(C(=O)Nc3ccccc3N)cc1)O2,16,6
COc1ccc(S(=O)(=O)N(C)C[C@H]2Oc3ccc(NS(=O)(=O)c4cn(C)cn4)cc3CC(=O)N([C@@H](C)CO)C[C@H]2C)cc1,15,10
C[C@H](CO)N1C[C@H](C)[C@@H](CN(C)C(=O)Nc2ccc3c(c2)OCO3)OCCCC[C@H](C)Oc2ccc(NS(=O)(=O)c3ccc(Cl)cc3)cc2C1=O,0,-7
Cc1ccc(-c2ccc3c(c2)O[C@H](CN(C)S(C)(=O)=O)[C@H](C)CN([C@H](C)CO)S3(=O)=O)cc1,-14,-19
COCC(=O)N1C[C@@H]2[C@H](c3ccccc31)[C@@H](CO)N2Cc1ccccc1Cl,2,9
C[C@H](CO)N1C[C@H](C)[C@@H](CN(C)C(=O)Nc2ccc(C(F)(F)F)cc2)OCCCC[C@H](C)Oc2ccc(NC(=O)Nc3cccc4ccccc34)cc2C1=O,18,21
C[C@H](CO)N1C[C@H](C)[C@@H](CN(C)C(=O)C2CCC2)Oc2cc(C#CCN(C)C)ccc2S1(=O)=O,-3,-3
CC(=O)Nc1ccc2c(c1)C(=O)N(C)[C@H]1CC[C@@H](CC(=O)NCc3ccc(Cl)cc3)O[C@H]1CO2,6,6
C[C@@H]1CCCCO[C@@H](CN(C)C(=O)NC2CCCCC2)[C@@H](C)CN([C@@H](C)CO)C(=O)c2cc(NS(=O)(=O)c3cn(C)cn3)ccc2O1,-5,3
CCC(=O)Nc1ccc2c(c1)C(=O)N(C)[C@@H]1CC[C@H](CC(=O)N3CCCCC3)O[C@@H]1CO2,4,8
C[C@@H]1CN([C@@H](C)CO)C(=O)c2cc(NS(C)(=O)=O)ccc2O[C@@H](C)CCCCO[C@H]1CN(C)C(=O)NC1CCCCC1,14,10
COc1ccc(C(=O)N2C[C@H]3[C@@H](c4ccccc42)[C@H](CO)N3Cc2ccccc2)cc1,26,14
Cc1noc(C)c1NC(=O)N(C)C[C@H]1Oc2c(NC(=O)c3ccc(-c4nccs4)cc3)cccc2C(=O)N([C@@H](C)CO)C[C@@H]1C,11,11
C[C@@H]1CN([C@@H](C)CO)C(=O)c2cccc(NC(=O)C3CC3)c2O[C@@H]1CN(C)Cc1ccc(Oc2ccccc2)cc1,0,6
CCC(=O)N[C@H]1CC[C@@H](CCn2cc(CN(C)C)nn2)O[C@H]1CO,2,0
Cc1noc(C)c1NC(=O)N[C@@H]1C=C[C@H](CC(=O)NCc2ccc(Cl)c(Cl)c2)O[C@@H]1CO,17,15
C[C@@H]1CN([C@@H](C)CO)C(=O)c2cc(NC(=O)Cc3ccccc3)ccc2O[C@H]1CN(C)Cc1ccc(Oc2ccccc2)cc1,-6,-6
N#C[C@@H]1[C@@H](c2ccccc2-c2cccc(F)c2)[C@H](CO)N1C(=O)C1CCC1,21,14
C[C@H](CO)N1C[C@H](C)[C@H](CN(C)Cc2ccc(C(F)(F)F)cc2)Oc2c(NC(=O)Nc3ccc(C(F)(F)F)cc3)cccc2C1=O,?,/
OC[C@@H]1[C@H](c2ccccc2)C2(CN(Cc3cccnc3)C2)N1Cc1ccncc1,29,13
CCNC(=O)[C@H]1[C@H](CO)[C@H]2Cn3c(cccc3=O)[C@@H]1N2CCC(F)(F)F,6,7
CN(C)C(=O)c1ccc(-c2ccccc2[C@H]2[C@@H](C#N)N(C(=O)C3CCC3)[C@@H]2CO)cc1,-6,-1
CCCN1C[C@@H](C)[C@@H](OC)CN(C)C(=O)c2ccc(NC(=O)C3CCC3)cc2OC[C@H]1C,23,16
C[C@H](CO)N1C[C@H](C)[C@H](CN(C)C(=O)c2ccccc2)Oc2ncc(C#CC3CC3)cc2C1=O,13,6
COc1ccc(-c2ccc3c(c2)O[C@@H](CN(C)C(=O)c2ccccc2F)[C@H](C)CN([C@@H](C)CO)S3(=O)=O)cc1,-35,-16
CC(=O)Nc1ccc2c(c1)C(=O)N(C)[C@@H]1CC[C@H](CC(=O)NCC3CC3)O[C@H]1CO2,21,16
CC(C)NC(=O)N(C)C[C@@H]1Oc2ccc(NS(=O)(=O)c3ccc(F)cc3)cc2CC(=O)N([C@@H](C)CO)C[C@@H]1C,-5,1
CO[C@@H]1CN(C)C(=O)c2ccc(NC(=O)C3CCOCC3)cc2OC[C@@H](C)N(C(C)=O)C[C@H]1C,14,2
C[C@H]1CN([C@@H](C)CO)C(=O)c2cc(/C=C/c3ccccc3)cnc2O[C@H]1CN(C)C(=O)c1ccc2c(c1)OCO2,?,/
O=C(N[C@@H]1CC[C@@H](CCNS(=O)(=O)c2ccc(Cl)cc2)O[C@H]1CO)c1cccc(F)c1,-4,8
C[C@@H]1CN([C@H](C)CO)C(=O)c2c(c3ccccc3n2C)-c2ccccc2CO[C@@H]1CN(C)C(=O)CCC(F)(F)F,-5,-15
O=C(NC1CCCCC1)[C@H]1[C@H](CO)[C@H]2Cn3c(cccc3=O)[C@H]2N1CC1CCCCC1,6,3
COc1ccc(S(=O)(=O)N[C@H]2CC[C@@H](CC(=O)NCc3ccccc3F)O[C@H]2CO)cc1,-6,-3
C[C@@H]1CN([C@@H](C)CO)C(=O)c2cc(C#CCN(C)C)cnc2O[C@H]1CN(C)C(=O)CCN1CCCCC1,28,7
Cc1cccc(S(=O)(=O)N2C[C@@H](O)COC[C@H]3O[C@@H](CC(=O)NCCCN4CCOCC4)CC[C@@H]32)c1,-2,-1
COc1ccc(NC(=O)N(C)C[C@H]2Oc3ccc(NC(=O)CCCN(C)C)cc3C(=O)N([C@@H](C)CO)C[C@@H]2C)cc1,22,12
O=C(c1cccnc1)N1CC(=O)N2[C@@H](CO)[C@@H](c3ccc(C#CCC4CCCC4)cc3)[C@@H]2C1,3,-23
COc1ccc(CN(C)C[C@@H]2Oc3ccc(NC(=O)CCC(F)(F)F)cc3C(=O)N([C@H](C)CO)C[C@H]2C)cc1,8,6
COc1ccc(S(=O)(=O)N(C)C[C@H]2Oc3ccc(NS(=O)(=O)c4ccc(F)cc4)cc3CC(=O)N([C@H](C)CO)C[C@@H]2C)cc1,-16,-7
CO[C@@H]1CN(C)C(=O)c2cc(NC(=O)NC(C)C)ccc2OC[C@@H](C)N(C(=O)CN(C)C)C[C@@H]1C,25,14
CN1C(=O)c2cc(NC(=O)c3ccc(F)c(F)c3)ccc2OC[C@@H]2O[C@H](CC(=O)N[C@H]3CCN(Cc4ccccc4)C3)CC[C@H]21,-16,-10
C[C@@H]1CN([C@H](C)CO)C(=O)c2cc(NC(=O)c3ccncc3)ccc2O[C@@H](C)CCCCO[C@H]1CN(C)S(=O)(=O)c1cn(C)cn1,15,11
C[C@H](CO)N1C[C@H](C)[C@@H](CN(C)S(=O)(=O)c2ccccc2C#N)OCc2cn(nn2)CCCC1=O,20,15
C/C=C/c1ccc2c(c1)O[C@@H](CN(C)C(=O)Cc1cccnc1)[C@H](C)CN([C@H](C)CO)S2(=O)=O,-1,4
C[C@@H]1CCCCO[C@@H](CN(C)Cc2ccccc2)[C@H](C)CN([C@@H](C)CO)C(=O)c2cc(NC(=O)c3ccncc3)ccc2O1,0,-10
COc1cccc(C#Cc2ccc([C@@H]3[C@H](C#N)N(C(=O)C4CCC4)[C@H]3CO)cc2)c1,-33,-22
Cn1cnc(CCNC(=O)C[C@H]2CC[C@@H]3[C@H](COC[C@H](O)CN3C(=O)Nc3ccccc3)O2)c1,5,0
CC(C)NC(=O)N1C[C@@H]2[C@H](c3ccccc31)[C@H](CO)N2C(=O)Nc1ccc(F)cc1,-6,-3

# Among those listed so far, 12 have an aryl methoxy group:
SMILES,Vaccinia inh,Vaccinia inh Venus
COc1ccc(-c2ccc([C@@H]3[C@@H](CO)N4C(=O)CN(C(=O)c5ccccc5)C[C@H]34)cc2)cc1,-11,-8
COc1ccc(-c2ccc([C@H]3[C@@H](C#N)N(C(=O)NC4CCCC4)[C@@H]3CO)cc2)cc1,-19,-12
COc1ccc(S(=O)(=O)Nc2ccc3c(c2)C(=O)N([C@H](C)CO)C[C@H](C)[C@@H](CN(C)Cc2ccncc2)OCCCC[C@H](C)O3)cc1,27,-4
COc1ccc2c3c([nH]c2c1)[C@@H](CO)N(C(=O)c1ccccc1)CC31CN(Cc2cccnc2)C1,14,12
COc1ccc(S(=O)(=O)N(C)C[C@H]2Oc3ccc(NS(=O)(=O)c4cn(C)cn4)cc3CC(=O)N([C@@H](C)CO)C[C@H]2C)cc1,15,10
COc1ccc(C(=O)N2C[C@H]3[C@@H](c4ccccc42)[C@H](CO)N3Cc2ccccc2)cc1,26,14
COc1ccc(-c2ccc3c(c2)O[C@@H](CN(C)C(=O)c2ccccc2F)[C@H](C)CN([C@@H](C)CO)S3(=O)=O)cc1,-35,-16
COc1ccc(S(=O)(=O)N[C@H]2CC[C@@H](CC(=O)NCc3ccccc3F)O[C@H]2CO)cc1,-6,-3
COc1ccc(NC(=O)N(C)C[C@H]2Oc3ccc(NC(=O)CCCN(C)C)cc3C(=O)N([C@@H](C)CO)C[C@@H]2C)cc1,22,12
COc1ccc(CN(C)C[C@@H]2Oc3ccc(NC(=O)CCC(F)(F)F)cc3C(=O)N([C@H](C)CO)C[C@H]2C)cc1,8,6
COc1ccc(S(=O)(=O)N(C)C[C@H]2Oc3ccc(NS(=O)(=O)c4ccc(F)cc4)cc3CC(=O)N([C@H](C)CO)C[C@@H]2C)cc1,-16,-7
COc1cccc(C#Cc2ccc([C@@H]3[C@H](C#N)N(C(=O)C4CCC4)[C@H]3CO)cc2)c1,-33,-22
